gsp antag: antagonizes gsp, the McCune-Albright syndrome mutation | Potency, µM (series often up to 76.9 µM), inactives show top-dose activity change, negative = inhibition, actives largely listed as inhibitors | 340,000 tested, 0.4% active | gsp-mutant cells, cAMP HTRF, 30 min; control for the full effect not named in the record | AID 624288; active = falling curve of any shape with a large fitted effect; inconclusive = falling curve, mostly with a smaller effect; inactive = flat or rising curve; cell line not stated here;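 further: intracellular cAMP measured with PDE inhibitor Ro 20-1724 present during compound exposure; potency means the concentration at half of the fitted maximal effect; on the % scale 0 is the no-effect control and ±100 the full control effect; nearly all actives have a fitted effect of over 65% in size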
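HTRF cAMP read-out (cAMP-d2 plus anti-cAMP antibody-K in lysis buffer, 30 min RT). Before lysis, cells are exposed to compounds with […] for 30 min at 37C in DPBS containing Ca/Mg, BSA and Tween 20.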
gsp ag: activates gsp, the McCune-Albright syndrome mutation; gsp mutant cells, cAMP HTRF, 30 min; control for the full effect not named in the record; Potency, µM (highest dose often 76.9 µM), without a hit: at the highest dose activation (cAMP increase), usual class: activators; 340,000 tested, 0.13% active; active = well fitted activation curve with a large enough effect; inconclusive = small, poorly fitted or top-dose-only effect, or another doubt; inactive = no such curve, though single readings can be large or run the other way; cell line not stated here;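 further: phosphodiesterase inhibitor Ro 20-1724 added with compounds to block cAMP breakdown; potency means the concentration at half of the fitted maximal effect; nearly all actives have a fitted effect of over 60% in size; about a fifth of the inactives were tested at one dose only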
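Cells in DMEM/10% FBS with G418 were pretreated with compounds in DMSO plus […] (300 uM stock) for 30 min at 37C. cAMP was measured by HTRF (cAMP-d2 plus anti-cAMP antibody-K) after 30 min at room temperature.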
ClpP mod: qHTS Assay for Activators of ClpP. Potency, µM (series often up to 57.5 µM), for the others: at the top dose activity change, negative = active. 340,000 tested, 1.9% active. purified B. subtilis ClpP, FRET peptide cleavage, 20 min; active = well fitted falling curve with a large enough effect; inconclusive = small, poorly fitted or top-dose-only effect; inactive = no such curve, though single readings can be large or run the other way; further: potency means the concentration at half of the fitted maximal effect; the source files actives as falling curves though it sought activators and does not explain the sign; nearly all actives have a fitted effect of over 65% in size; many hits overshoot -100%
Target sequence (P80244 whole entry, looked up): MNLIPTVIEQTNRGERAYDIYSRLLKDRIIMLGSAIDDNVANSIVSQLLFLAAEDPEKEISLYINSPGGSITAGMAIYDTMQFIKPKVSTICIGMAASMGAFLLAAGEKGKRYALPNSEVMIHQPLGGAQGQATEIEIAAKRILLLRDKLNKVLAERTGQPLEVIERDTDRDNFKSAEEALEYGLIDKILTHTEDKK
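FRET quenching reversal measured ClpP activation: 10 microg/mL B. subtilis ClpP at pH 8 with the FRET-FV decapeptide, read at 430 nm after 320 nm excitation. The 20-min minus 0-min signal was scaled between DMSO/no-enzyme wells and ADEP (5.8 microM final).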
TRPML1 inh: blocks the human TRPML1 channel. Q9GZU1. TRPML1-inducible cells, Ca2+ dye fluorescence, FDSS; stronger effect = lower value; inhibition of EC80 agonist-evoked calcium signal. activity change, negative = inhibition, % (no concentration beside the values). 390,000 tested, 0.02% active; in the data active means activity change below about -50%; inconclusive means about -30% to -50%; inactive means above about -30%;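 further: stimulus is agonist 54-4 at its EC80 concentration; on the % scale 0 is the no-effect control and ±100 the full control effect; compound concentration not given in the record; the text of the record puts the active cut at -80%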
Target sequence (Q9GZU1 whole entry, looked up): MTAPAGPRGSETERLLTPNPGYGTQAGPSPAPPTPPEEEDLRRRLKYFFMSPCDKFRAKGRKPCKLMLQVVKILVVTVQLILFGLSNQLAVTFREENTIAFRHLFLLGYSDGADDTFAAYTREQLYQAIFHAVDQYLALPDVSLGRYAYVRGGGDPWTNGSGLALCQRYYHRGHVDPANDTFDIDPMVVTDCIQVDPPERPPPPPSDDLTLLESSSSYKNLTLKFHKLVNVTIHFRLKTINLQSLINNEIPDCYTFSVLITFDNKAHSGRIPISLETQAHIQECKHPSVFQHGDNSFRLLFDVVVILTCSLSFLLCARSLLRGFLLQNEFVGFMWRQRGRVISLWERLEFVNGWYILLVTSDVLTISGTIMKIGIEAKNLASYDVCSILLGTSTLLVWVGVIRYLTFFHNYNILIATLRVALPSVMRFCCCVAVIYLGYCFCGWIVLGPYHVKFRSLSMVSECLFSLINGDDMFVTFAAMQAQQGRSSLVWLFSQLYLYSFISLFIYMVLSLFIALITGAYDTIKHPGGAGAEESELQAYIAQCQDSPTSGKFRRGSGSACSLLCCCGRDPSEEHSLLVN
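TRPML1-DL cells, Tet-induced overnight (~16 h, 37 °C) at 1,500 cells/well, were loaded with Ca8 no-wash dye plus quencher for 45-90 min at room temperature. Compounds were pinned during FDSS kinetic reading; agonist 54-4 at EC80 (4 uM final) then added.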
TRPML1 agonist: agonists of human TRPML1 channel. Q9GZU1. TRPML1-expressing cells, Ca2+ dye fluorescence, FDSS; host cell line not named in the record; reference of the full effect not given here. activation, % (no concentration beside the values). 410,000 tested, 0.12% active. AID 624414; in the data active = activation above about 50%; inconclusive = about 30% to 50%; inactive = below about 30%; further: 0% is about no effect; the text of the record puts the active cut at 80%
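Agonist activity was taken from a 110 s kinetic Ca2+ dye read on the FDSS after pinning compounds onto TRPML1-DL cells. The cells were seeded at 1,500/well with Tet inducer, incubated about 16 h, then dye-loaded at room temperature.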
Menin-MLL FL inh: inhibitors of human menin-MLL interaction, wild-type MLL peptide; Fluorescence polarization, fluorescein-MLL peptide displacement from menin; 290,000 tested, under 10 active; FP activity change, % at 61.4 µM; AID 1766; inconclusive = falling polarisation curve, or a change in total fluorescence; inactive = total fluorescence flat and polarisation flat or rising; no compound was filed as active; the % refers to the polarisation; negative = inhibition;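 further: % of control where 0% means no effect; inhibitors lower the polarisation; unlabelled MLL peptide was the positive control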
* marks the source's active call; other numbers are inactive results; [ ] = dose if it differs, or a comment. The order is random; any-hit rate near 2.1%.

Results for O=C(Nc1ncc([N+](=O)[O-])s1)c1cccc([N+](=O)[O-])c1 ?
gsp antag: inconclusive; gsp ag: -26%; ClpP mod: -0.7%; TRPML1 inh: 40; TRPML1 agonist: 5.0; Menin-MLL FL inh: 0.1

What do the screens show for `COc1cccc(CNC(C)C(=O)Nc2ccc3c(c2)OCCO3)c1` (stereo not drawn)?
gsp antag: 8%; gsp ag: 1%[15.4 µM]; TRPML1 inh: 17; TRPML1 agonist: 0.7; Menin-MLL FL inh: -1.4

How did CC(C)(C)OC(=O)NCCCC[C@H](NC(=O)c1nc[nH]c1C(=O)NCc1ccc(CNC(=O)OC(C)(C)C)cc1)C(=O)OC(C)(C)C do in these assays?
gsp antag: -10%; gsp ag: -19%; ClpP mod: 0.7%; TRPML1 inh: 10; TRPML1 agonist: 0.0; Menin-MLL FL inh: -0.8

How did COc1ccccc1C(=O)COC(=O)c1ccccc1OCC(=O)Nc1ccc(SC(F)F)cc1 do in these assays?
gsp antag: -3%; gsp ag: 1%; ClpP mod: -1.6%; TRPML1 inh: 46; TRPML1 agonist: 1.0; Menin-MLL FL inh: 2.7

Results for O=C(CSc1ncn[nH]1)Nc1nnc(-c2ccccc2)s1 ?
gsp antag: -10%; gsp ag: -1%; ClpP mod: -4.6%; TRPML1 inh: 13; TRPML1 agonist: -0.6; Menin-MLL FL inh: 6.8

Results for CCOCc1c(C(=O)OCC(=O)Nc2ccccc2C(N)=O)oc2ccccc12 ?
gsp antag: -6%; gsp ag: inconclusive; ClpP mod: inconclusive; TRPML1 inh: -5; TRPML1 agonist: -0.5

Results for Cn1cccc1/C=N/n1c(-c2ccco2)n[nH]c1=S ?
gsp antag: -3%; gsp ag: 6%; ClpP mod: -0.9%; TRPML1 inh: -19; TRPML1 agonist: 0.1; Menin-MLL FL inh: -3.8

How did CC(C)(C)c1ccc(CNc2cc(N3CCOCC3)ccc2[N+](=O)[O-])cc1 do in these assays?
gsp antag: -7%; gsp ag: -3%; ClpP mod: -0.4%; TRPML1 inh: 69; TRPML1 agonist: 2.0; Menin-MLL FL inh: 1.6

What do the screens show for `OC1CCN(c2ncnc3nc[nH]c23)CC1`?
gsp antag: 8%; gsp ag: 9%; ClpP mod: 0.9%; TRPML1 inh: -5; TRPML1 agonist: -0.6; Menin-MLL FL inh: -0.3

What do the screens show for `COc1ccc(/C=N/OC(=O)Nc2ccccc2OC)cc1`?
gsp antag: -8%; gsp ag: -15%[15.4 µM]; TRPML1 inh: 18; TRPML1 agonist: 2.0; Menin-MLL FL inh: 0.9

What do the screens show for `COC(CNC(=O)c1cn(C)c2ccc(S(=O)(=O)N3CCOCC3)cc2c1=O)OC`?
gsp antag: 3%; gsp ag: inconclusive; ClpP mod: -0.3%; TRPML1 inh: 6; TRPML1 agonist: -0.2

What do the screens show for `Cc1cc(NS(=O)(=O)c2ccc(NC(=O)c3ccccc3F)cc2)no1`?
gsp antag: -8%; gsp ag: -61%[inhibitor]; ClpP mod: 0.8%; TRPML1 inh: -2; TRPML1 agonist: -0.3

What do the screens show for `COc1ccc(CNC(=O)CCCCCn2c(=O)[nH]c3ccccc3c2=O)cc1`?
ClpP mod: inconclusive; TRPML1 inh: -10; TRPML1 agonist: 0.2

How did C/C(=N\NC(=O)COc1ccc(C(C)(C)C)cc1)c1ccc(N2CCOCC2)cc1 do in these assays?
gsp antag: 3%; gsp ag: -8%; ClpP mod: 3.5%; TRPML1 inh: 35; TRPML1 agonist: 1.6; Menin-MLL FL inh: 0.6

What do the screens show for `CCc1nnc(NC(=O)c2ccc(S(=O)(=O)N(C)Cc3ccccc3)cc2)o1`?
gsp antag: -15%; gsp ag: inconclusive; ClpP mod: -3.7%; TRPML1 inh: -10; TRPML1 agonist: 0.5; Menin-MLL FL inh: 3.3

What do the screens show for `CCc1ccc(NC(=O)C(C)OC(=O)CN2C(=O)NC3(CCCC3)C2=O)cc1` (stereo not drawn)?
gsp antag: -4%; gsp ag: -29%; ClpP mod: -1.1%; TRPML1 inh: -7; TRPML1 agonist: -0.5

Results for CCOC(=O)CSc1nnc(NCC(=O)OC)c(=O)[nH]1 ?
gsp antag: 6%; gsp ag: 3%; ClpP mod: 1.1%; TRPML1 inh: 3; TRPML1 agonist: -0.7; Menin-MLL FL inh: -1.9

How did CCOC(=O)C(CC)(CC)C(=O)/C=C/c1ccc(Br)cc1 do in these assays?
gsp antag: 3%; gsp ag: -2%; ClpP mod: -1.2%; TRPML1 inh: -16; TRPML1 agonist: -1.8; Menin-MLL FL inh: -1.6

What do the screens show for `Cc1[nH]c(C)c(S(=O)(=O)NCc2ccc(N(C)C)cc2)c1C(=O)N1CCCC1`?
gsp antag: 0%; gsp ag: 1%; ClpP mod: -1.9%; TRPML1 inh: 0; TRPML1 agonist: 4.2; Menin-MLL FL inh: -0.7

Results for CCOc1cc(C(=O)Nc2ccc(N3CCN(C(C)=O)CC3)cc2)cc(OCC)c1OCC ?
gsp antag: -12%; gsp ag: -1%; ClpP mod: 1.5%; TRPML1 inh: 9; TRPML1 agonist: -0.4; Menin-MLL FL inh: 1.7

How did Cc1cc(NC(=NC2CC2)c2ccccc2F)n(-c2ccccc2)n1 do in these assays?
gsp antag: -2%; gsp ag: 12%; ClpP mod: -2.6%; TRPML1 inh: 0; TRPML1 agonist: 1.6; Menin-MLL FL inh: 4.3

What do the screens show for `CC(C)c1ccc(C(O)c2nc3ccccc3n2C)cc1` (stereo not drawn)?
gsp antag: -3%; gsp ag: inconclusive; ClpP mod: 1.9%; Menin-MLL FL inh: -3.0

How did NS(=O)(=O)c1ccc(CCNC(=O)c2coc3ccccc3c2=O)cc1 do in these assays?
gsp antag: 7%; gsp ag: 19%[15.4 µM]; TRPML1 inh: -12; TRPML1 agonist: 0.0; Menin-MLL FL inh: 1.4

How did Cc1nc(SCC(=O)OCc2ccccc2)c2c(=O)n(C)c(=O)n(C)c2n1 do in these assays?
gsp antag: 5%; gsp ag: 8%; ClpP mod: -0.1%; TRPML1 inh: 7; TRPML1 agonist: 0.1; Menin-MLL FL inh: 0.8

How did C[C@H](CO)N1C[C@H](C)[C@@H](CN(C)Cc2ccc(C(=O)O)cc2)Oc2c(NS(=O)(=O)c3ccc(F)cc3)cccc2C1=O do in these assays?
gsp antag: 1%; ClpP mod: -0.5%; TRPML1 inh: -5; TRPML1 agonist: 0.0

Results for CSc1ccc(/C=C(/NC(=O)c2ccccc2)C(=O)NCCCn2ccnc2)cc1 ?
gsp antag: 5%; gsp ag: -5%; TRPML1 inh: -13; TRPML1 agonist: -0.8; Menin-MLL FL inh: -4.0

What do the screens show for `COc1cc(C(=O)Nc2nonc2-c2ccc(C)c(C)c2)cc(OC)c1OC`?
ClpP mod: 0.5%; TRPML1 inh: 8; TRPML1 agonist: 2.2

Results for O=c1c(/C=N\NS(=O)(=O)c2ccccc2)coc2ccc(Cl)cc12 ?
gsp antag: -2%; gsp ag: -55%[inhibitor]; ClpP mod: -1.4%; TRPML1 inh: -5; TRPML1 agonist: 0.5; Menin-MLL FL inh: 3.1

What do the screens show for `CN(C)S(=O)(=O)c1cccc(NC(=O)/C=C/c2ccc(S(=O)(=O)N3CCOCC3)cc2)c1`?
gsp antag: -19%; gsp ag: 4%; ClpP mod: -3.1%; TRPML1 inh: 1; TRPML1 agonist: -0.2

How did CC1CCCN(c2cc(N(C)CCO)c([N+](=O)[O-])c3nonc23)C1 (stereo not drawn) do in these assays?
gsp antag: -2%; gsp ag: -9%[15.4 µM]; TRPML1 inh: -10; TRPML1 agonist: 1.5; Menin-MLL FL inh: 8.1

Results for Cc1ccc(CN2C(=O)CCC2C(=O)NCCCN2CCCC(C)C2)cc1 (stereo not drawn) ?
gsp antag: 8%; gsp ag: -25%; ClpP mod: -1.9%; TRPML1 inh: 1; TRPML1 agonist: -0.3; Menin-MLL FL inh: 4.1

What do the screens show for `CO/N=C/CC(=O)c1cnc(-c2ccccc2)s1`?
gsp antag: 7%; gsp ag: 22%[15.4 µM]; TRPML1 inh: 19; TRPML1 agonist: 0.1; Menin-MLL FL inh: 1.4

Results for Cc1cccc(Nc2c(O)nc[nH]c2=O)c1 ?
gsp antag: 4%; gsp ag: -33%[inhibitor]; TRPML1 inh: 21; TRPML1 agonist: -0.5

How did Cc1cc(Nc2cccc(C)c2C)n2ncnc2n1 do in these assays?
gsp antag: 8%; gsp ag: -47%[inhibitor]; ClpP mod: -5.2%; TRPML1 inh: -21; TRPML1 agonist: 0.2; Menin-MLL FL inh: 2.7

Results for CCOC(=O)c1cc(-c2ccc(C)cc2)n(CC(=O)Nc2cc(C)ccc2C)c1C ?
ClpP mod: -0.9%; TRPML1 inh: -4; TRPML1 agonist: -0.8

How did O=C(COc1ccc(Cl)cc1Cl)OCC(=O)c1ccc[nH]1 do in these assays?
gsp antag: 16%; gsp ag: -68%[inhibitor]; ClpP mod: -1.5%; TRPML1 inh: 7; TRPML1 agonist: 2.1

Results for COc1cc(C)c(S(=O)(=O)N2CCOCC2)cc1C(C)C ?
gsp antag: -14%; gsp ag: -23%; ClpP mod: -0.1%; TRPML1 inh: 9; TRPML1 agonist: 0.4; Menin-MLL FL inh: -0.3

What do the screens show for `COc1ccccc1NC(=O)c1cc(Sc2nncn2C)nc2ccccc12`?
gsp antag: -8%; gsp ag: 22%; ClpP mod: 0.4%; TRPML1 inh: -4; TRPML1 agonist: -0.2; Menin-MLL FL inh: -1.0

Results for CCN(C(=O)COC(=O)C1CCN(S(=O)(=O)c2c(Cl)cccc2Cl)CC1)C1CCCCC1 ?
gsp antag: -5%; gsp ag: -14%; ClpP mod: 0.8%; TRPML1 inh: -1; TRPML1 agonist: 0.7

Results for O=C(NC1CCc2ccccc21)C1CCN(S(=O)(=O)c2ccc(-n3cnnn3)cc2)CC1 (stereo not drawn) ?
gsp antag: -1%; gsp ag: -1%; ClpP mod: 0.5%; TRPML1 inh: -8; TRPML1 agonist: -0.6; Menin-MLL FL inh: 0.9

Results for CN(C)C1(CNC(=O)Nc2ccccc2)CCCCC1 ?
gsp antag: 10%; gsp ag: -17%[15.4 µM]; TRPML1 inh: 15; TRPML1 agonist: -0.1; Menin-MLL FL inh: -7.2

Grouped by structure, the entries above containing a furan ring, fused or not.
Results for CCOCc1c(C(=O)OCC(=O)Nc2ccccc2C(N)=O)oc2ccccc12 ?
gsp antag: -6%; gsp ag: inconclusive; ClpP mod: inconclusive; TRPML1 inh: -5; TRPML1 agonist: -0.5

Results for Cn1cccc1/C=N/n1c(-c2ccco2)n[nH]c1=S ?
gsp antag: -3%; gsp ag: 6%; ClpP mod: -0.9%; TRPML1 inh: -19; TRPML1 agonist: 0.1; Menin-MLL FL inh: -3.8

Compound activity deposited in PubChem by National Center for Advancing Translational Sciences (NCATS).
